Bioassay records as filed in PubChem BioAssay.
Mtb H37Rv – M. tuberculosis H37Rv growth inhibitors, H37Rv strain (AID 1626) | M. tuberculosis H37Rv growth inhibition; higher % means a stronger effect | 220,000 compounds, 0.95% hits | inhibition, % at 10 µM, or IC50 in µM where a hit was titrated;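 active = confirmed in a dose series; inconclusive = inhibition above 80% but not taken into the dose series; inactive = below 80% or under 30% at every dose of the series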;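 note: bacteria incubated seven days before Alamar blue readout; 0% = bacteria only wells and 100% = bacteria with antibiotic wells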
Arbovirus inh – antivirals against arbovirus infection, primary screen, cell-based, full library, 10K replicate subset. arbovirus infection cell-based antiviral screen. inhibition, % at 10 µM. 200,000 compounds, 0.37% hits. AID 1251, 2008;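 active = inhibition from about 30%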;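 note: bluetongue infection of BSR cells; cell survival read as ATP light after 72 h; 0% = infected wells without compound and 100% = uninfected wells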
RecA splice inh – Mtb RecA intein splicing inhibitors, primary screen, biochemical, fluorescence, HTS; inhibition, %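 (about 9 µM by stock and volumes)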; cell-free RecA intein splicing; 290,000 compounds, 0.75% hits; Protein RecA (Mycobacterium tuberculosis (strain ATCC 25618 / H37Rv)), P9WHJ3; in the data active = inhibition above about 30%; inconclusive = no clear call, values can overlap the other calls;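 note: 0% = vehicle wells and 100% = reference inhibitor control wells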
Target sequence (P9WHJ3 whole entry, looked up, canonical isoform): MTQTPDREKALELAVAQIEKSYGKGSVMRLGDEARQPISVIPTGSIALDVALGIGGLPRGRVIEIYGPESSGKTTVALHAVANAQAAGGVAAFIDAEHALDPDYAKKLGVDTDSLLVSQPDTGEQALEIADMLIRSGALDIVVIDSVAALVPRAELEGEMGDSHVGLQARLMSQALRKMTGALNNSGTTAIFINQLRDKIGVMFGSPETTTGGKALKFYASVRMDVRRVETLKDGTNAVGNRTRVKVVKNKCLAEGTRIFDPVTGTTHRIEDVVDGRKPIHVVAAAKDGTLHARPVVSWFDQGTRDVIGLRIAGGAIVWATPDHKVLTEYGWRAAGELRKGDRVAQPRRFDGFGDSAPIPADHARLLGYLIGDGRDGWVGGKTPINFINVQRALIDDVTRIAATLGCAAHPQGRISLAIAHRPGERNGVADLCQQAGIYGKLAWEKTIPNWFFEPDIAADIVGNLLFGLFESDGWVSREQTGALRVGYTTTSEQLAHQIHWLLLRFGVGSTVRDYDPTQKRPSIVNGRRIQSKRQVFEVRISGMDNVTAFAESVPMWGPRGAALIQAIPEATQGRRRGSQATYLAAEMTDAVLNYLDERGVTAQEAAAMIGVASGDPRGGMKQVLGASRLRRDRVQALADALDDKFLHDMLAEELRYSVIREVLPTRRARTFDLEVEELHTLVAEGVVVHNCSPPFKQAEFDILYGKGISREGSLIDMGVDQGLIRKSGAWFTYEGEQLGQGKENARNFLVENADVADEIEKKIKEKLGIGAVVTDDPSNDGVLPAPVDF
YopH PTP inh – YopH tyrosine phosphatase inhibitors, primary screen, biochemical, fluorescence Ex485/Em525; AID 898, 2007; YopH tyrosine phosphatase [Yersinia enterocolitica]; inhibition, %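 (about 10 µM by stock and volumes)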; 140,000 compounds, 0.16% hits;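 active = inhibition of 50% or more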;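 note: controls were vehicle for no effect and minimum signal wells for full effect; inactives centre near -20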
Mtb bLac sens – beta-lactam sensitization of Mtb H37Rv, H37Rv; 330,000 compounds, 0.27% hits; AID 434955, 2010; inhibition, % at 25 µM; M. tuberculosis H37Rv growth with meropenem, percent inhibition; hits of this screen are not shown here;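 active = about 74% or more and at least 40 points above the plate without the antibiotic, then above 30% in a dose series; inconclusive = first-round hits that could not be retested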;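 note: growth measured after seven days incubation then overnight dye step; 0% = bacteria only wells and 100% = bacteria with antibiotic; twin plates without the antibiotic show which effects depend on it; some results filed as inactive read as strong as hits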
Arbovirus inh repeat – recorded beside Arbovirus inh, whose call it bears; inhibition, %; measured here: 10K subset replicate screen; many hits read low in the repeat;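 first of two repeat runs on a subset; 0% = infected and 100% = uninfected wells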
The depositor's hits bear a star; ? = inconclusive; / = no result given. This is a subset; rates above refer to the full screens.

SMILES	Mtb H37Rv	Arbovirus inh	RecA splice inh	YopH PTP inh	Mtb bLac sens	others
COc1ccccc1C(=O)NCC(=O)NNC(=O)C1COc2ccccc2O1 (configuration not stated)	/	/	-4.8	/	-5
COc1ccc(S(=O)(=O)N2CCOCC2)cc1NC(=O)COC(=O)C1COc2ccccc2O1 (configuration not stated)	5%	5	0.5	-14	3
Cc1nc(C)c(C(=O)C2=C(O)C(=O)N(CCN3CCOCC3)C2c2cccs2)s1 (configuration not stated)	-8%	-3	3.9	-33	-1
Cc1ccccc1NC(=O)C1CCCN(c2nnc(N3CCCC3=O)s2)C1 (configuration not stated)	/	/	-2.7	/	4
Cc1c(C)c2ccc(OCC(=O)N3CCC(C(=O)O)CC3)c(C)c2oc1=O	/	/	-3.1	/	3
Cc1ccc(Oc2ccc(NC(=O)Cn3ccsc3=N)cc2)cc1	-14%	-46	0.4	-10	-13
COc1ccc(C(=O)NNC(=O)c2cc3cc([N+](=O)[O-])ccc3oc2=O)cc1OC	-7%	-11	-0.8	-19	9
O=C(Nc1ccc2nc(-c3ccccn3)[nH]c2c1)C1CCCCC1	0%	-25	/	-32	4
C=CCN1C(=NC(=O)CC)SC2CS(=O)(=O)CC21 (configuration not stated)	0%	0	-0.4	-9	-6
Fc1cnc(Cl)nc1N1CCN(c2ccccc2)CC1	4%	/	3.0	/	-5
Nc1nonc1-c1nc2ccccc2n1Cc1ccc(F)cc1	2%	-19	2.5	-8	-5
C=C1C(=O)[C@@]23C[C@H]4[C@@H]5[C@@]6(C)CCC[C@@]57[C@@H]2[C@@H](O)[C@@H]1C[C@H]3[C@H]7N4C6	-5%	/	-0.8	/	-2
Cc1cccc(NC(=S)N(Cc2ccco2)C(C)c2cccs2)c1 (configuration not stated)	-5%	-4	21	/	-2
NC(=O)CC(NC(=O)Cc1ccc(Br)cc1)c1ccc(NCCN2CCCC2)c([N+](=O)[O-])c1 (configuration not stated)	/	/	-0.5	/	-9
Cc1ccccc1CN1CCN(CC(=O)NCc2ccccn2)C1=O	-2%	3	-0.6	-20	8	Arbovirus inh repeat=4
O=[N+]([O-])c1ccc(-c2cn3c(n2)CCC3)cc1	-12%	/	0.7	/	-2
COc1cccc(CNCc2ccc3c(c2)OCO3)c1	/	/	1.6	/	-6
CCc1c(C)nc(N)nc1N1N=C1SCC(=O)OC	6%	0	-3.0	/	-5
CCN1C(=O)N(CN2CCOCC2)C2C1N(CN1CCOCC1)C(=O)N2CC (configuration not stated)	-2%	/	-2.5	/	26
CCOC(=O)C1(Cc2ccc(OC)cc2)CCN(C(=O)c2ccc3[nH]ccc3c2)CC1	1%	-18	3.1	/	5
COc1cc(Br)cc(CN2CCN(C/C=C/c3ccccc3)CC2)c1O	6%	23	1.3	-37	/
C=CCN1C(=O)C(CC(=O)NCC)SC1=Nc1cc(Cl)ccc1Cl (configuration not stated)	/	/	1.2	/	6
Cc1nc(NS(=O)(=O)c2ccccc2)sc1NC(=O)Nc1ccc(Cl)cc1	-5%	/	2.8	/	-7
Cn1c(Oc2ccc(F)cc2F)c(C=O)c2ccccc21	17%	-11	25	/	7
CC(C)(C)NC(=O)CCN1CCOCC1	-10%	1	2.1	-9	6
O=C(Nc1ccc(N2CCCCC2)cc1)c1cc([N+](=O)[O-])cc([N+](=O)[O-])c1	-3%	-3	-2.1	/	/
COC1(OC)C(=N/O)/C(=N\O)CCC1O (configuration not stated)	-7%	11	7.7	-38	9
CCCN1CNC(=S)N(CC2CCCO2)C1 (configuration not stated)	1%	7	-0.9	-30	-1
N#CCCN(Cc1cccnc1)C(=O)Nc1cccc(Cl)c1	-6%	4	3.7	-31	4
CC1CCC(NC(=O)CCS(=O)(=O)c2ccc3c(c2)oc(=O)n3C)CC1 (configuration not stated)	/	/	-0.5	/	-1
C/C(=N\NC(=S)Nc1ccc(F)cc1)C1CC1	-5%	4	2.6	15	100
O=C(O)CCSc1ncnc2sc(-c3ccccc3)cc12	6%	/	-0.7	/	-3
COc1cccc(CN2CCN(c3ccc(F)cc3)C2=O)c1	6%	0	0.3	/	3
Cc1cc(C(=O)CCC(=O)N(C)CC(=O)Nc2ccccc2Br)c(C)s1	/	/	3.0	/	-6
COCCNC(=O)C(c1cccs1)N(C(=O)Cn1nnc2ccccc21)c1ccc2c(c1)OCO2 (configuration not stated)	-16%	9	-1.5	-23	-5
CCOC(Cn1ccc(=O)[nH]c1=O)OCC	0%	/	-2.3	/	-5
COc1ccc(C(=O)Nc2cccc(-c3cnc4ccccc4n3)c2)cc1	-1%	-15	-3.2	-22	0
Cc1ccc(C(=O)OCC(=O)Nc2nc(-c3ccccc3)cs2)cc1NC(=O)c1ccco1	9%	0	2.2	/	21
COc1ccc(OC)c(NC(=O)C2CCN(Cc3cnn(-c4ccccc4)c3-n3cccc3)CC2)c1	5%	-5	-0.9	-24	14
Nn1c(SCc2ccc([N+](=O)[O-])cc2)nc2ccccc2c1=O	/	/	-3.2	/	16
COc1ccc(N(CC(=O)Nc2cccc(C(F)(F)F)c2)S(C)(=O)=O)cc1	-5%	-6	-4.7	-15	18
O=C(NC(=S)NNC(=O)c1ccccc1O)c1ccco1	6%	-20	36*	-26	-2
CCCN1CN=C(Nc2nc3ccccc3o2)NC1	8%	/	-0.2	/	8
CC(C)NC(=O)c1cc(=O)n(C)c(=O)n1C	-6%	6	1.3	0	5
O=C(/C=C/c1cccs1)c1ccc(NC(=O)c2ccccc2F)cc1	15%	7	2.5	-9	7
CCOC(=O)C1CCCNC1=O (configuration not stated)	13%	/	1.1	/	0
COc1cccc2c(=O)n(CC(=O)N3CCCCCC3)ccc12	8%	0	0.3	-48	-2
COc1ccc(CN(C)C(=O)Cc2c[nH]c3ccccc23)cc1	/	/	2.6	/	-2

Structural class, the entries above with an aryl thioether with sulfur outside any ring.
SMILES	Mtb H37Rv	Arbovirus inh	RecA splice inh	YopH PTP inh	Mtb bLac sens	others
O=C(O)CCSc1ncnc2sc(-c3ccccc3)cc12	6%	/	-0.7	/	-3
Nn1c(SCc2ccc([N+](=O)[O-])cc2)nc2ccccc2c1=O	/	/	-3.2	/	16

Of the compounds above, 4 contain an NH in an aromatic ring.
SMILES	Mtb H37Rv	Arbovirus inh	RecA splice inh	YopH PTP inh	Mtb bLac sens	others
O=C(Nc1ccc2nc(-c3ccccn3)[nH]c2c1)C1CCCCC1	0%	-25	/	-32	4
CCOC(=O)C1(Cc2ccc(OC)cc2)CCN(C(=O)c2ccc3[nH]ccc3c2)CC1	1%	-18	3.1	/	5
CCOC(Cn1ccc(=O)[nH]c1=O)OCC	0%	/	-2.3	/	-5
COc1ccc(CN(C)C(=O)Cc2c[nH]c3ccccc23)cc1	/	/	2.6	/	-2

(further entries)
SMILES	Mtb H37Rv	Arbovirus inh	RecA splice inh	YopH PTP inh	Mtb bLac sens	others
CC(=O)OC(C)(C)/C=C/C(=O)[C@](C)(O)[C@H]1[C@H](O)C[C@@]2(C)[C@@H]3CC=C4[C@H](C[C@H](O)C(=O)C4(C)C)[C@]3(C)C(=O)C[C@]12C	-2%	-37	/	-34	/
O=C(Nc1ccc([N+](=O)[O-])cc1)c1ccc(Cn2cc([N+](=O)[O-])cn2)cc1	0%	-21	1.9	/	10
Cc1ccc(NC(=O)Cc2c(Cl)cccc2Cl)cc1S(=O)(=O)N(C)C	-2%	4	8.1	-5	-1
O=C1CN(C(=O)CSc2nc(-c3ccc(Cl)cc3)cs2)c2ccccc2N1	3%	24	/	-26	2
CCOC(=O)C1(CCc2ccccc2)CCN(C(=O)CCc2cnccn2)CC1	-3%	19	-2.6	/	-2
CCNC(=O)c1cc(Br)ccc1Cl	-4%	13	-1.6	16	-7
O=C(NCc1ccccc1)C1=C[C@H](c2ccc(C(F)(F)F)cc2)C[C@H](OCc2ccc(CO)cc2)O1	-14%	-12	11	/	-4
O=C(COc1ccc(S(=O)(=O)N2CCCCC2)cc1)NC1CCCCC1	2%	3	-0.7	-42	-7
CN(CC(=O)Nc1cccc(F)c1)C(=O)c1csc2c1CCCC2	/	/	-5.0	/	-11
C=COC(=O)CSc1snc(SCC(=O)OC)c1C#N	1%	-3	33*	4	9
CCCCc1ccc(NC(=O)CSC2=NN3CCCC(=O)N=C3S2)cc1	/	/	-1.0	/	91
CC(C)(C)c1ccc(S(=O)(=O)NCc2ccc(C(=O)N3CCOCC3)cc2)cc1	2%	-3	0.5	4	-7
Cc1c(C(=O)N2CCN(Cc3ccccc3)CC2)oc2c1C(=O)CCC2	/	/	-1.2	/	?
COc1cc(OC)cc(C(=O)NC(=S)NNC(=O)[C@H]2C[C@@H]2c2ccccc2)c1	2%	/	0.4	/	5
NS(=O)(=O)c1ccc(N=Nc2c(-c3ccccc3)[nH]n(-c3nc(-c4ccccc4)cs3)c2=O)cc1	15%	-4	3.3	-2	2
Cc1cccc(C)c1NC(=O)Cn1c(CN2CCCCC2)nc2ccccc2c1=O	-7%	4	-1.7	-86	-16
Cc1ccc(N/N=C2\CC(=O)c3ccccc32)cc1Cl	39%	-20	11	/	98
CC(=O)c1ccc(COC(=O)c2ccccc2NC(=O)C(C)C)cc1	12%	-7	5.7	/	-1
COc1ccc(NC(=O)CC2SC(=O)NC2=O)cc1 (configuration not stated)	-4%	-8	1.7	/	19
CC1(C)Cc2c(cnn2-c2cccc(F)c2)C(NC(=O)C2CCOCC2)C1 (configuration not stated)	/	/	0.3	/	-22
Cc1cc(Cl)c(C(=O)Nc2cccc(C(F)(F)F)c2)c(C)n1	/	/	2.9	/	-19
CCOc1ccc(N(CC(=O)NC2CCCC2)S(=O)(=O)c2c(C)[nH]c(=O)[nH]c2=O)cc1	-1%	12	-4.7	-4	-5
Cc1ccc2c(c1)N(C(=O)CCC(=O)NC1CCC(C)CC1)CCO2 (configuration not stated)	/	/	0.5	/	9
Cc1ccc(/C=C/C(=O)Oc2ccc(C#N)cc2)o1	/	/	1.7	/	-2
Cc1[nH]c2ccccc2c(=O)c1CN1CCCCCC1	/	/	-3.1	/	8
CCc1ccccc1NC(=O)CSc1nnc(-c2ccncc2)o1	3%	12	0.3	/	-6
CC1(C)NC(=O)N(CCOc2ccc3c(c2)CCC3)C1=O	-8%	4	-1.1	-4	-5
COc1ccc(N2CCOCC2)c(NC(=O)c2cc3ccccc3o2)c1	/	/	1.4	/	3
Cc1cc2oc(=O)cc(CN3CCOCC3)c2cc1Cl	/	/	-1.9	/	3
COc1ccc(CNS(=O)(=O)c2cc(CN3C(=O)c4cccnc4C3=O)ccc2OC)cc1	/	/	0.7	/	-2
O=c1c2c3c(sc2nc2n1CCCC2)CCC3	-2%	-8	0.8	-18	2
COc1ccc(-c2cc(C(N)=O)nc(N3CCCCCC3)n2)cc1	11%	14	-4.5	-49	/
O=C(NCCc1ccccc1)c1cccs1	9%	-2	1.5	-4	0
CCC(C)C(NC(=O)C1CCC(C)CC1)C(=O)NCCCN1CCCCC1CC (configuration not stated)	3%	0	-2.1	/	-8
CCN(CC)CCCNC(=O)Cc1c(C(=O)O)n(C)c2ccccc12	1%	6	-1.0	52*	1
Cc1cccc(NC(=O)NC(=S)NC(=O)c2ccccc2)c1	?	10	1.6	18	74
CCc1ccc(/C=C2\Oc3ccc(C(=O)OC)cc3C2=O)cc1	3%	-11	0.5	-39	-8
CCN(CC)C(=S)NC(=O)c1ccc(F)cc1	?	2	2.6	/	95
CSc1ccccc1C(=O)N(C)Cc1ccccc1	12%	-2	/	/	20
CCCn1nnc(NC(=O)C(C)C)n1	2%	/	/	/	-3
CC1Cc2nc(SCC(=O)N3CCN(c4ccccc4)CC3)n(C)c(=O)c2S1 (configuration not stated)	-13%	6	3.6	-32	-4
O=c1c2ccccc2nc(CSc2ncnc3nc[nH]c23)n1-c1ccccc1Cl	6%	5	/	-9	31
Cc1ccc(C)c(NC(=O)C(Sc2nc3ccccc3c(=O)n2CC(C)C)c2ccccc2)c1 (configuration not stated)	11%	-5	-3.2	-15	/
COc1ccc(/C=C2\SC(=S)N(CCC(=O)N3CCCCC3CCO)C2=O)cc1 (configuration not stated)	/	/	-0.2	/	27
COc1cccc(NC(=O)CN(C)C(=O)Cc2ccc(Cl)cc2Cl)c1	/	/	2.7	/	1
Cc1ccc(NC(=O)c2ccc(NC(=O)C3CCCCC3C(=O)O)cc2)cc1 (configuration not stated)	/	/	-1.4	/	-11
COc1cccc(-n2nnnc2SCC(=O)NC2CCCC2)c1	-9%	0	-2.8	-16	-4
COc1cc(NC(=O)c2cc(C)on2)cc(OC)c1OC	-1%	2	-5.4	-21	-10
